From PubChem BioAssay
UCH37 inh: blocks the human deubiquitinase UCH37 | Q9Y5K5 | purified proteasome/UCH37, Ub-AMC cleavage fluorescence | 0.33% of 330,000 active | inhibition, % (concentration not given with the values);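 active means mean of two replicates above 20%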;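 further: 0% = compound-free wells with enzyme and 100% = wells lacking proteasome; stock transfer was 100 nL into about 20 µL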
Target sequence (Q9Y5K5 whole entry, looked up): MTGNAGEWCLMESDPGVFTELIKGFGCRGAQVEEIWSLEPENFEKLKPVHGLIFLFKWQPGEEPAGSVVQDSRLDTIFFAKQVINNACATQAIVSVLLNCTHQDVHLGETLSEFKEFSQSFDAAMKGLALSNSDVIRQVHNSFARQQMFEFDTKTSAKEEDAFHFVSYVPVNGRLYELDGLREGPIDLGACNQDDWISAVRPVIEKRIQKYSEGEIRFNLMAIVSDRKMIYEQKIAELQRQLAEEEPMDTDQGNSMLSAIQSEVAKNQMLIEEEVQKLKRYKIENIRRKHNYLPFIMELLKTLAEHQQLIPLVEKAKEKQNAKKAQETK
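Test system – human UCH37 enzyme supplied as purified proteasome complex · Incubation – 30 min preincubation with enzyme, 25 min cleavage at room temperature · Detection – AMC fluorescence from Ub-AMC cleavage, excitation 355 nm, emission 460 nm · Benchmarks – no-proteasome wells (full inhibition) and compound-free wells (no inhibition)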
E coli growth: E. coli growth inhibition; Escherichia coli growth, OD600, 23 h; active compounds read low; OD600 absorbance (concentration not given with the values); 0.21% of 330,000 active; AID 1053175;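 active means OD600 absorbance below the run mean of sample wells minus 3.6 SD, in any replicate, cut at about 0.56 in these data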;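 further: stock transfer was 300 nL into about 60 µL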
HNF4A DNA FP: change in binding of human HNF4 alpha to DNA. P41235. HNF4a-FITC DNA binding, fluorescence polarization, 1 h. activity change, % at 10 µM. 0.3% of 360,000 active; in the data active means activity change above about 30%, passing the limit was not always enough;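 further: controls were the assay level and a saturating level of protein; the project sought stronger binding though the title names inhibitors; some compounds called inactive have numbers as strong as hits; positive values seem to mean higher polarization but the record does not say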
LANA-H2A inh: blocks KSHV LANA binding to histone H2A/H2B. Q9QR71. cell-free LANA-H2A/H2B peptide, fluorescence polarization. inhibition, % (no concentration beside the values). 0.6% of 320,000 active. AID 2629; in the data active means inhibition mostly above about 10%, no sharp cut-off; inactive means mostly below about 6.7%;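 further: stock transfer was 7.5 nL into about 10 µL; 0% = median of vehicle wells and 100% = median of positive control wells; one replicate is shown; the record names a cut of 25% in any replicate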
Beta2AR agonist: activates human beta-2 adrenergic receptor causing internalization; Am2.2-beta2AR cells, FAP receptor internalization, flow cytometry; reference of the scale not given here; 0.43% of 340,000 active; response, % (test concentration not listed); P07550;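 active means response above a set limit, near 3 SD of response in nonfluorescent compounds, cut at about 42% in these data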;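 further: stock transfer was 100 nL into about 11 µL; a reference agonist was the positive control; negative values mostly stem from fluorescent compounds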
Target sequence (P07550 whole entry, looked up): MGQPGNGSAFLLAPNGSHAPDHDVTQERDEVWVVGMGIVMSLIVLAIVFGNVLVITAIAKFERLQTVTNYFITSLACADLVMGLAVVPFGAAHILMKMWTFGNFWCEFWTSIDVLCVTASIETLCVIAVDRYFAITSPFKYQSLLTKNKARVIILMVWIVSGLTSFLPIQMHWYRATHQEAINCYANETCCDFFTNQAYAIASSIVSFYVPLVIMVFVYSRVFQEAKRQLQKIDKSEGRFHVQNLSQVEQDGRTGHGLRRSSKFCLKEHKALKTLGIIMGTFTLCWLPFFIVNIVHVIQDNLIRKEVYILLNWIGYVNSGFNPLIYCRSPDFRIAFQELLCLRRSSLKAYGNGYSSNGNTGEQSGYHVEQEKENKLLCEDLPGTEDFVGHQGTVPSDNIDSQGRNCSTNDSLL
FGF22 binding: shifts melting point of recombinant human FGF22; recombinant FGF22 thermal shift, SYPRO orange fluorescence; percent of sucrose octasulfate shift, DMSO zero; calls only at 9.99 µM; 1.5% of 340,000 active; AID 651658;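 active means melting point raised past a set limit in the mean and every replicate; three in four hits are not shown here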
Target sequence (Q9HCT0 whole entry, looked up): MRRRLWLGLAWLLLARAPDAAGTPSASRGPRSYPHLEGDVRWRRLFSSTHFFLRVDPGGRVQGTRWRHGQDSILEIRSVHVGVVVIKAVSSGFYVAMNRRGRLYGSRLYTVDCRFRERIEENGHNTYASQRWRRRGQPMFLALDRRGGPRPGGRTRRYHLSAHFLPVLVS
ALR H2O2 inh: human ALR oxidase inhibition via reduced H2O2. purified ALR, DTT oxidation, H2O2 HRP-luminol luminescence. inhibition, % (concentration not given with the values). 3.8% of 290,000 active. AID 485317;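 active means mean and each replicate at 75% or more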;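 further: stock transfer was 7.5 nL into about 7.5 µL; 0% = neutral wells and 100% = wells with inactivated enzyme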
* = called active by the depositor.

How did CC1(c2ccccc2)NC(=O)N(CC(=O)N2CCN(S(=O)(=O)c3c(F)cccc3F)CC2)C1=O (centres undefined) do in these assays?
UCH37 inh: 0.7; E coli growth: 0.69; HNF4A DNA FP: 2.3; LANA-H2A inh: 0.0; Beta2AR agonist: -7; FGF22 binding: inactive; ALR H2O2 inh: -3

Results for CCC(C)NC(=O)c1nn(C)c(=O)c2ccccc12 (centres undefined) ?
UCH37 inh: -0.8; E coli growth: 0.66; HNF4A DNA FP: -3.2; LANA-H2A inh: 2.4; Beta2AR agonist: 4; FGF22 binding: inactive; ALR H2O2 inh: 5

What do the screens show for `O=C(Nc1ccc2nsnc2c1)C1CC1`?
UCH37 inh: -33; E coli growth: 0.67; HNF4A DNA FP: -2.4; LANA-H2A inh: 0.4; Beta2AR agonist: -10; FGF22 binding: inactive; ALR H2O2 inh: -9

Results for NNC(=O)c1ccncc1 ?
UCH37 inh: 0.3; E coli growth: 0.66; HNF4A DNA FP: 1.3; LANA-H2A inh: -24; Beta2AR agonist: 0; FGF22 binding: inactive

Results for NC(=O)CSc1nnc(-c2ccc(S(=O)(=O)N3CCOCC3)cc2)n1CC1CCCO1 (centres undefined) ?
UCH37 inh: 2.6; E coli growth: 0.7; HNF4A DNA FP: 2.1; LANA-H2A inh: -0.3; Beta2AR agonist: -6; ALR H2O2 inh: -20

What do the screens show for `Oc1[nH]c2ccccc2c1N=Nc1cccc(Cl)c1`?
UCH37 inh: 6.0; E coli growth: 0.67; HNF4A DNA FP: 20; LANA-H2A inh: 9.7; Beta2AR agonist: 8; FGF22 binding: inactive; ALR H2O2 inh: 5

How did O=C(c1cc(Br)c(Br)s1)N1CCOCC1 do in these assays?
UCH37 inh: 5.1; E coli growth: 0.62; HNF4A DNA FP: 1.2; LANA-H2A inh: 0.1; Beta2AR agonist: -14; ALR H2O2 inh: 2

What do the screens show for `CC(OC(=O)C1CCN(S(=O)(=O)c2ccccc2)CC1)C(=O)Nc1ncc(Cl)cc1Cl` (centres undefined)?
UCH37 inh: -0.2; E coli growth: 0.68; HNF4A DNA FP: 4.7; LANA-H2A inh: 0.5; Beta2AR agonist: -14; ALR H2O2 inh: -2

How did CCOC(=O)C1CCN(C(=O)c2sc3ncnc(N4CCC(C)CC4)c3c2C)CC1 do in these assays?
UCH37 inh: 4.4; E coli growth: 0.69; HNF4A DNA FP: -3.2; LANA-H2A inh: -2.2; Beta2AR agonist: 7

What do the screens show for `COc1ccccc1CNC(=O)C(NS(=O)(=O)c1ccc2c(c1)OCCO2)C(C)C` (centres undefined)?
UCH37 inh: 1.2; E coli growth: 0.74; HNF4A DNA FP: -0.6; LANA-H2A inh: -4.6; Beta2AR agonist: 1; ALR H2O2 inh: -2

What do the screens show for `COc1cc(/C=C(\C#N)C(=O)Nc2cccc(C(=O)O)c2)ccc1OCc1ccc(F)cc1`?
UCH37 inh: 4.5; E coli growth: 0.7; HNF4A DNA FP: 1.4; LANA-H2A inh: 1.8; Beta2AR agonist: 9; FGF22 binding: inactive; ALR H2O2 inh: 7

How did CC(=O)Nc1ccc(S(=O)(=O)C(C#N)c2nc3ccccc3nc2NCCCO)cc1 (centres undefined) do in these assays?
UCH37 inh: inactive; E coli growth: 0.7; HNF4A DNA FP: 2.9; LANA-H2A inh: 1.4; Beta2AR agonist: -2; FGF22 binding: inactive; ALR H2O2 inh: -28

What do the screens show for `COc1cc(-c2nnc(SCC#CCO)o2)cc(OC)c1OC`?
UCH37 inh: 4.3; E coli growth: 0.66; HNF4A DNA FP: 0.0; LANA-H2A inh: -7.1; Beta2AR agonist: 1; ALR H2O2 inh: -20

What do the screens show for `Oc1ccc(/C=N/Nc2cccc3cccnc23)c(O)c1`?
HNF4A DNA FP: 5.3; LANA-H2A inh: -11; Beta2AR agonist: 22; FGF22 binding: inactive; ALR H2O2 inh: 84*

How did CCCC(c1nnnn1Cc1ccco1)N1CCC(C(N)=O)CC1 (centres undefined) do in these assays?
UCH37 inh: 0.2; E coli growth: 0.68; HNF4A DNA FP: 1.1; LANA-H2A inh: -4.6; Beta2AR agonist: 2; ALR H2O2 inh: 2

How did Cc1ccc(NC(=O)Cn2nc(C(=O)Nc3ccc(C)cc3)ccc2=O)cc1 do in these assays?
UCH37 inh: 1.6; E coli growth: 0.75; HNF4A DNA FP: 4.0; LANA-H2A inh: -3.6; Beta2AR agonist: 0; FGF22 binding: inactive; ALR H2O2 inh: 0

Results for CCOC(=O)CSc1nnc(-c2ccco2)n1C ?
UCH37 inh: 5.3; E coli growth: 0.67; HNF4A DNA FP: 0.5; LANA-H2A inh: -1.7; Beta2AR agonist: -4; ALR H2O2 inh: 0

What do the screens show for `COc1ccc(NC(=S)NNC(=O)c2nnn(-c3ccccc3)c2C)cc1`?
HNF4A DNA FP: 0.6; LANA-H2A inh: 2.4; Beta2AR agonist: 6; FGF22 binding: inactive; ALR H2O2 inh: 60

How did CCOc1ccccc1NC(=O)c1cc(CC(C)C)oc1C do in these assays?
UCH37 inh: 5.2; E coli growth: 0.68; HNF4A DNA FP: 2.2; LANA-H2A inh: 1.2; Beta2AR agonist: -12

Results for O=C(OCc1ccccc1)c1ccc2c(c1)-c1ccccc1C2=O ?
UCH37 inh: 2.5; E coli growth: 0.73; HNF4A DNA FP: -1.3; LANA-H2A inh: -5.8; Beta2AR agonist: -2; ALR H2O2 inh: 0

What do the screens show for `Cc1ccc2c(c1)N(C(=O)CCC(=O)N1CCN(c3cccc(C)c3C)CC1)CCO2`?
UCH37 inh: 3.2; E coli growth: 0.75; HNF4A DNA FP: 3.2; LANA-H2A inh: -0.1; Beta2AR agonist: 2; FGF22 binding: inactive

Results for CC(C)N(Cc1ccccc1)C(=S)NCc1ccccc1 ?
UCH37 inh: 6.9; E coli growth: 0.7; HNF4A DNA FP: 4.1; LANA-H2A inh: 1.1; Beta2AR agonist: -4; FGF22 binding: inactive

Results for O=C1CC(NS(=O)(=O)c2ccc([N+](=O)[O-])cc2)CN1c1cccc(F)c1 (centres undefined) ?
UCH37 inh: 4.2; E coli growth: 0.72; HNF4A DNA FP: 2.0; LANA-H2A inh: -1.1; Beta2AR agonist: -17; FGF22 binding: inactive; ALR H2O2 inh: -33

How did O=C(Nc1cccc2nsnc12)c1cc2c(cc1Cl)Sc1nccn1S2(=O)=O do in these assays?
HNF4A DNA FP: -6.8; Beta2AR agonist: 4; FGF22 binding: inactive

Copied from the results shown for reference:
What do the screens show for `COc1cc(-c2nnc(SCC#CCO)o2)cc(OC)c1OC`?
UCH37 inh: 4.3; E coli growth: 0.66; HNF4A DNA FP: 0.0; LANA-H2A inh: -7.1; Beta2AR agonist: 1; ALR H2O2 inh: -20

What do the screens show for `Oc1ccc(/C=N/Nc2cccc3cccnc23)c(O)c1`?
HNF4A DNA FP: 5.3; LANA-H2A inh: -11; Beta2AR agonist: 22; FGF22 binding: inactive; ALR H2O2 inh: 84*

(list continues)
How did Cc1c(Cl)cccc1NS(=O)(=O)c1cccc2nsnc12 do in these assays?
UCH37 inh: 4.5; E coli growth: 0.64; HNF4A DNA FP: -6.1; LANA-H2A inh: 4.0; Beta2AR agonist: 8; FGF22 binding: inactive; ALR H2O2 inh: -28

How did CCC(=O)N=C1SC2CS(=O)(=O)CC2N1c1cccc(OC)c1 (centres undefined) do in these assays?
UCH37 inh: 0.1; E coli growth: 0.72; HNF4A DNA FP: -4.7; LANA-H2A inh: 1.5; Beta2AR agonist: 1; ALR H2O2 inh: 3

What do the screens show for `CCCCNc1ncnc2c1cnn2-c1ccccc1`?
UCH37 inh: 1.1; E coli growth: 0.72; HNF4A DNA FP: -0.1; LANA-H2A inh: -0.7; Beta2AR agonist: 0; ALR H2O2 inh: -2

Results for CCNC(=S)N1CCc2cc(OC)c(OC)cc2C1COc1ccc(OC)cc1 (centres undefined) ?
UCH37 inh: 2.4; E coli growth: 0.71; HNF4A DNA FP: 0.3; LANA-H2A inh: -2.3; Beta2AR agonist: 0; FGF22 binding: inactive; ALR H2O2 inh: 1

What do the screens show for `Cc1ccc(OCC(=O)NCCNC(=O)c2ccco2)cc1`?
UCH37 inh: 1.9; E coli growth: 0.66; HNF4A DNA FP: -1.6; LANA-H2A inh: 4.7; Beta2AR agonist: 2; FGF22 binding: inactive; ALR H2O2 inh: 1

Results for CNS(=O)(=O)c1cccc(C(=O)OCCCC(=O)c2ccccc2)c1 ?
UCH37 inh: 3.3; E coli growth: 0.68; HNF4A DNA FP: -3.0; LANA-H2A inh: 3.2; Beta2AR agonist: 3; FGF22 binding: inactive; ALR H2O2 inh: 1

How did COc1ccc(C(C)=O)cc1CC(=O)NCCCn1ccnc1 do in these assays?
UCH37 inh: 2.7; E coli growth: 0.7; HNF4A DNA FP: -1.6; LANA-H2A inh: -6.7; Beta2AR agonist: 2; FGF22 binding: inactive; ALR H2O2 inh: -4

Results for CCCn1c(SCCc2ccccc2)nc2c1c(=O)[nH]c(=O)n2C ?
UCH37 inh: 0.6; E coli growth: 0.75; HNF4A DNA FP: -1.3; LANA-H2A inh: -3.2; Beta2AR agonist: 3; ALR H2O2 inh: 14

What do the screens show for `CCOc1ccc(NC(=O)CNC(=O)c2ccc(OC)c(OC)c2)cc1`?
UCH37 inh: 2.9; E coli growth: 0.73; HNF4A DNA FP: 0.7; LANA-H2A inh: -5.7; Beta2AR agonist: 2

What do the screens show for `O=C(Nc1ccccc1N1CCCCC1)c1cnccn1`?
UCH37 inh: 2.9; E coli growth: 0.66; HNF4A DNA FP: 3.1; LANA-H2A inh: -7.8; Beta2AR agonist: -30; FGF22 binding: inactive; ALR H2O2 inh: 97*

How did O=C(CN1C(=O)c2ccccc2C1=O)OCc1nc2ccsc2c(=O)[nH]1 do in these assays?
UCH37 inh: 1.7; E coli growth: 0.7; HNF4A DNA FP: 1.3; LANA-H2A inh: 7.3; Beta2AR agonist: 1; FGF22 binding: inactive; ALR H2O2 inh: 0

Results for O=C1c2ccccc2NC(c2ccccc2)N1Cc1ccccc1 (centres undefined) ?
UCH37 inh: -191; E coli growth: 0.69; HNF4A DNA FP: 0.2; LANA-H2A inh: -2.4; Beta2AR agonist: 9; FGF22 binding: inactive; ALR H2O2 inh: -5

What do the screens show for `COc1ccc(CCN(C)C(=O)c2cc(=O)c3ccccc3o2)cc1OC`?
UCH37 inh: 7.3; E coli growth: 0.7; HNF4A DNA FP: 3.1; LANA-H2A inh: 3.3; Beta2AR agonist: -5; FGF22 binding: inactive; ALR H2O2 inh: -3

What do the screens show for `Cc1ccccc1OCC(=O)NCC(=O)OCc1ccc(Br)cc1`?
UCH37 inh: 0.5; E coli growth: 0.65; HNF4A DNA FP: 1.8; LANA-H2A inh: -7.3; Beta2AR agonist: 1; FGF22 binding: inactive; ALR H2O2 inh: -2

What do the screens show for `Cc1ccc(CNc2cccnc2)cc1`?
UCH37 inh: -2.5; E coli growth: 0.58; HNF4A DNA FP: -2.2; LANA-H2A inh: 3.8; Beta2AR agonist: -1; FGF22 binding: inactive; ALR H2O2 inh: -14

Results for Cc1cc(=O)[nH]c(SCC(=O)N2c3ccccc3CC2C)n1 (centres undefined) ?
HNF4A DNA FP: -1.9; LANA-H2A inh: -2.2; Beta2AR agonist: 5; ALR H2O2 inh: -15

How did O=[N+]([O-])c1cn(Cc2ccccc2)cn1 do in these assays?
UCH37 inh: -1.6; E coli growth: 0.69; HNF4A DNA FP: 6.7; LANA-H2A inh: -3.5; Beta2AR agonist: 3; FGF22 binding: inactive; ALR H2O2 inh: -6

Results for CCCNC(=O)C(Cc1ccccc1F)NC(=O)c1ccccn1 (centres undefined) ?
UCH37 inh: -0.4; E coli growth: 0.7; HNF4A DNA FP: -1.6; LANA-H2A inh: -5.2; Beta2AR agonist: 5; FGF22 binding: inactive; ALR H2O2 inh: -1

What do the screens show for `NNC(=O)c1cc2ccccc2[nH]1`?
UCH37 inh: 0.4; E coli growth: 0.69; HNF4A DNA FP: -2.3; LANA-H2A inh: -1.9; Beta2AR agonist: -1; FGF22 binding: inactive

How did O=C1NC(c2ccccc2)CCO1 (centres undefined) do in these assays?
UCH37 inh: 0.4; E coli growth: 0.73; HNF4A DNA FP: -1.9; LANA-H2A inh: 3.2; Beta2AR agonist: 7; FGF22 binding: inactive; ALR H2O2 inh: 4

These rows are one share of the data; count on the stated rates, not on these rows.
